Rango release inh – prevents RanGTP from dissociating the Rango-importin beta complex; 340,000 tested, 0.071% active; Biochemical FRET Rango-importin beta, RanGTP-induced dissociation; AID 540253; Potency, µM (titrated, usually from 46.1 µM), without a hit: at the top dose activity change, negative = inhibition; O95149+P62826; active means falling FRET ratio curve, often poorly fitted, with flat reads before Ran was added; inconclusive means other falling curves, or compound fluorescence or quenching; inactive means flat or rising ratio curve;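 note: potency is the fitted concentration of half-maximal effect; % of control where 0% means no effect; nearly all actives have a fitted effect of over 45% in size; -100% = wells without RanGTP and RCC1; the record marks most hits as doubtful in a second field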
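Recombinant Rango FRET biosensor (EYFP–snurportin 1 IBB–cerulean CFP10) at 0.1 uM premixed with 0.25 uM importin beta in PBS, 1 mM DTT, 0.02% Tween-20, 0.1% BSA. Compound added 5 min; RanGTP-RCC1 (0.6 uM Ran, 2 mM GTP, 0.2 uM RCC1) then triggers release, read at 45 min.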
GLA inh pH 4.5 – alpha-galactosidase A (human) inhibition, pH 4.5 | P06280 | purified enzyme, 4-MU-alpha-Gal fluorescence, pH 4.5 | activity change, negative = inhibition, % at 105 µM | 230,000 tested, under 10 active; inconclusive = small, poorly fitted or top-dose-only inhibition, or a rising curve; inactive = flat fitted curve, though single readings scatter; no compound was filed as active;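 note: 0% = full activity with enzyme and -100% = basal without enzyme; dose as in the result columns while the protocol names 77 µM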
Target sequence (P06280 whole entry, looked up): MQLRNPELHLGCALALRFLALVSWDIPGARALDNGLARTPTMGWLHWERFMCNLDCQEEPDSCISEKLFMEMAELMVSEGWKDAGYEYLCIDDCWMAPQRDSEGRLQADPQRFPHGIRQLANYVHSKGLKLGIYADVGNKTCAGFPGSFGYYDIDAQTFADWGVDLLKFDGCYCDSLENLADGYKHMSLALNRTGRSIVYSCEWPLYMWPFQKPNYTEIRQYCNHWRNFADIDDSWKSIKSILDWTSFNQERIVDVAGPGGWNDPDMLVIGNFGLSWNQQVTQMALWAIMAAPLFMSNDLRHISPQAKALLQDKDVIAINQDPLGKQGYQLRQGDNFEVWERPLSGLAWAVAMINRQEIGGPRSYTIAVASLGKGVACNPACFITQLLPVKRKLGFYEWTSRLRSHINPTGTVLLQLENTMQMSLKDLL
miR-21 FLuc – raises the signal of a miR-21 reporter; HeLa miR-21 FLuc reporter, luciferase, 48 h; Potency, µM (series often up to 38.3 µM), for inactives: at the top dose reporter change, positive = more light; 340,000 tested, under 10 active; active = well fitted rising curve with a large enough effect; inconclusive = small, poorly fitted or top-dose-only effect; inactive = no such curve, though single readings can be large or run the other way;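 note: % of control where 0% means no effect; miR-21 action dims this reporter so a rising signal means less miR-21 action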
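HeLa miR-21-FLuc reporter line, endogenous miR-21; 2000 cells/well in DMEM/10% FBS; compound titration up to ~40uM final, 48 h, 37 degree Celsius; luciferase detection reagent, 15 min lysis, CCD luminescence.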
Rango complex inh – prevents formation of the Rango-importin beta complex; Rango CFP/YFP FRET sensor + importin beta, 45 min; Potency, µM (highest dose often 92.2 µM), without a hit: at the highest dose inhibition of complex formation; 340,000 tested, 0.031% active; active = rising FRET ratio curve, often small or poorly fitted; inconclusive = mostly compound fluorescence or quenching in the first reads; inactive = flat curves in all reads;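 note: potency is the fitted concentration of half-maximal effect; 0% = DMSO wells and 100% = buffer wells lacking importin beta; nearly all actives have a fitted effect of over 15% in size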
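FRET biosensor Rango (snurportin 1 IBB between N-terminal EYFP and C-terminal Cerulean), 50 nM in PBS/1 mM DTT/0.02% Tween-20/0.1% BSA, preincubated 5 min RT with compound; 0.125 microM importin beta added, 45 min RT, CFP/YFP FRET ratio read.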
* marks the source's active call; other numbers are inactive results; ? = inconclusive; / = not tested or not shown. An excerpt. The share of hits here may be higher or lower than overall.

SMILES | Rango release inh | GLA inh pH 4.5 | miR-21 FLuc | Rango complex inh
O=C(Nc1ccc(Cl)cc1Cl)c1cc2ccccc2o1 | 1% | / | -50% | -0.9%
CCOC(=O)C(C)n1cnc2c(nnn2-c2ccc(OC)cc2)c1=O (stereo not given) | -4% | 0 | -15% | 2.6%
CCC(=O)Nc1ccc(NC(=O)c2ccccc2Cl)nc1 | 18% | -4 | -28% | ?
Cc1ccc(NC(=O)N2CCc3ccccc32)cc1 | 1% | 2 | -5% | 0.6%
Cc1ccc2c(c1)C(c1ccccc1)N(C(=O)C(C)C)CC(=O)N2 (stereo not given) | 13% | 3 | -5% | -1.6%
CC(=O)Nc1ccc(NC(=O)C2CC(=O)N(c3ccccc3Cl)C2)cc1 (stereo not given) | 0% | 6 | -4% | 2.9%
CC(=O)/C(=N\Nc1ccccc1)Oc1ccc([N+](=O)[O-])cc1 | 4% | 2 | -3% | 3.6%
COCCOC(=O)C1=C(N)Oc2c(oc(CO)cc2=O)C1c1c(F)cccc1Cl (stereo not given) | -9% | -9 | -1% | 1.0%
CC(=O)Nc1ccc(S(=O)(=O)N(C)CC(=O)OCC(=O)Nc2cccnc2Cl)cc1 | 5% | 3 | 0% | -2.5%
CC1CCCCN1C(=O)CSc1nc(C2CC2)nc2c1cnn2-c1ccccc1 (stereo not given) | -7% | -4 | -4% | 2.6%
N#Cc1cc([N+](=O)[O-])ccc1Oc1ccc(-c2nnco2)cc1 | -7% | / | 0% | -3.0%
O=C(NNC(=O)c1ccccc1[N+](=O)[O-])c1ccc(NS(=O)(=O)c2cccs2)cc1 | 14% | / | -4% | -0.5%
O=c1[nH]c(SCc2ccccc2)nc2c1sc1ccccc12 | 10% | -24 | -3% | 3.5%
COc1cc2sc(C)nc2cc1C | 16% | -3 | -2% | 0.7%
Cc1cc(C(=O)NNC(=O)C(C)NS(=O)(=O)c2ccccc2F)c(C)o1 (stereo not given) | 2% | / | / | -0.6%
Cc1cc(O)ccc1Nc1nc(-c2cccnc2)cs1 | 8% | / | -34% | 1.9%
O=C(NCCC1=CCCCC1)C1CCN(c2nnc(-n3cccc3)s2)CC1 | -11% | 10 | 1% | -1.0%
CCOc1ccccc1C1CC(c2cccs2)=NN1S(C)(=O)=O (stereo not given) | -25% | 6 | -4% | ?
CCOC(=O)C1=C(N)Oc2cc(O)ccc2C1c1cccc(Cl)c1 (stereo not given) | ? | / | 19% | ?
Cc1ccccc1OCC(=O)N/N=C/c1c(C)nn(-c2ccccc2)c1Cl | 3% | -14 | -6% | -1.8%
Cc1nn(CC(=O)NC2CCS(=O)(=O)C2)c(C)c1[N+](=O)[O-] (stereo not given) | 3% | / | / | 0.4%
CCN1/C(=C2/SC(=S)N(NC(C)=O)C2=O)Sc2ccccc21 | ? | / | -8% | ?
Cc1ccc2c(CN3C(=O)NC4(CCCCC4)C3=O)cc(=O)oc2c1C | 4% | 0 | -22% | 0.7%
Cc1ccc(C(=O)Nc2ccccc2N2CCCCC2)cc1 | -6% | / | -4% | -0.1%
COc1ccccc1C(=O)N(Cc1nc(-c2ccc(Cl)cc2)no1)C(C)C | -7% | -6 | 17% | -2.0%
NS(=O)(=O)c1ccc(CNc2ncnc3sccc23)cc1 | -17% | / | 0% | -4.3%
CC(OC(=O)c1cc[n+]([O-])cc1)C(=O)Nc1ccc(Cl)cn1 (stereo not given) | 10% | 8 | 0% | 0.2%
CCC(C)(C)NC(=O)/C=C/c1cnc2ccccc2n1 | 7% | 0 | -44% | ?
CN(C(=O)COC(=O)CNC(=O)c1ccccc1Cl)c1ccccc1 | 5% | -4 | 0% | -0.9%
O=c1c(Cl)c(NCCO)ncn1-c1ccccc1 | -12% | 1 | -7% | 3.1%
O=C(O/N=C(\c1ccccc1)c1ccccn1)c1ccc(Cl)c(Cl)c1 | 1% | -6 | -6% | 0.7%
O=C(NCC1CCCO1)c1cccc(S(=O)(=O)Nc2ccc(F)cc2)c1 (stereo not given) | -4% | / | / | -2.4%
O=c1oc2ccccc2c(=O)c2ccccc12 | -2% | / | / | 3.5%
COc1ccc2cc(C#N)c(Nc3cccc(F)c3)nc2c1 | -17% | -3 | -2% | ?
Cn1c(=O)c2c(nc(OC3CCCC3)n2C)n(C)c1=O | -13% | / | / | -1.7%
CCc1ccc(-c2nc(C(N)=O)c3[nH]c(=O)n(-c4ccccc4OC)c3n2)cc1 | 9% | 21 | 23% | -3.5%
Cc1csc(=S)n1-c1ccccc1 | -8% | 11 | -12% | 2.3%
CCCn1nc2cc(C(=O)NCc3ccccc3)ccc2c1OCC | 3% | 1 | -12% | 3.7%
Cc1cccc(C)c1NC(=O)[C@@]1(CC(=O)O)CC(/C=C/c2ccccc2)=NO1 | -11% | / | -1% | -0.7%
CC(C)c1nnc(NC(=O)CCC(=O)NC2CCCCCC2)s1 | 11% | / | -1% | -0.3%

Compound profiles, as listed above. Order of screens: Rango release inh | GLA inh pH 4.5 | miR-21 FLuc | Rango complex inh
Cc1csc(=S)n1-c1ccccc1 as listed: -8% | 11 | -12% | 2.3%
CCCn1nc2cc(C(=O)NCc3ccccc3)ccc2c1OCC as listed: 3% | 1 | -12% | 3.7%
CC(C)c1nnc(NC(=O)CCC(=O)NC2CCCCCC2)s1 as listed: 11% | / | -1% | -0.3%

Next section.
SMILES | Rango release inh | GLA inh pH 4.5 | miR-21 FLuc | Rango complex inh
Cc1c(NC(=O)C(C)Oc2cccc(Cl)c2)c(=O)n(-c2ccccc2)n1C (stereo not given) | -12% | / | / | 0.9%
O=C(NCCNC(=O)c1ccccc1)c1ccccc1 | 5% | -2 | 3% | 1.8%
COc1ccc(/C=C2/C(=O)N=C(N)N2C)cc1OC | ? | -3 | -15% | -7.2%
Cc1nc2sc(C(c3ccc(F)cc3)N3CCN(C(=O)c4ccco4)CC3)c(O)n2n1 (stereo not given) | 3% | 5 | -1% | -1.7%
COc1ccc(-c2[nH]ncc2CN2CCCOc3c(cccc3OC)C2)c(OC)c1 | 0% | -1 | -1% | -1.4%
Cc1[nH]c(C)c(S(=O)(=O)Nc2ccc(F)cc2Cl)c1C(=O)N1CCCC1 | -6% | / | 0% | -0.6%
CCOc1cc(CNCCCN2CCOCC2)cc(Br)c1OCC(=O)Nc1cccc(C(F)(F)F)c1 | -11% | -15 | ? | -5.2%
CCC(C)NS(=O)(=O)c1ccc(NC(=O)c2c(-c3ccccc3)noc2C)cc1 (stereo not given) | -12% | 0 | -1% | -1.9%
C#Cc1ccc(CN2CCC(Oc3ccc(C(=O)NCc4ccccn4)cc3)CC2)cc1 | 0% | / | 9% | -2.4%
O=C(c1ccc(CS(=O)Cc2ccc(Cl)cc2)o1)N1CCN(c2ccccc2F)CC1 (stereo not given) | -2% | / | 8% | -0.8%
CCc1ccc(OCc2n[nH]c(=S)n2Cc2ccccc2)cc1 | 0% | 3 | 0% | -0.9%
CSCCC(NC(N)=O)C(=O)Nc1cccc(C#N)c1 (stereo not given) | -4% | 0 | -3% | 2.4%
CCc1nnc(NC(=O)CCC(=O)N2CCN(Cc3ccc(C)cc3C)CC2)s1 | -9% | / | 7% | -3.5%
CCOc1ccccc1C1NC(=O)c2ccccc2O1 (stereo not given) | -10% | / | 3% | -0.6%
Cc1cccn2c(=O)c3cc(S(=O)(=O)c4ccccc4)c(=N)n(Cc4ccc(F)cc4)c3nc12 | -15% | / | 0% | -2.4%
O=c1c2sccc2nc(SCc2cc(=O)n3cc(Cl)ccc3n2)n1-c1ccc(F)cc1 | 9% | 1 | 1% | -0.1%
COC(=O)c1cc(OC)c(OC)cc1NCC(=O)Nc1ccc(OC)c(OC)c1 | 13% | -8 | -1% | 0.1%
c1ccc(OCc2nc(-c3ccncc3)no2)cc1 | 10% | 10 | -47% | 1.7%
Cc1cc(C)nc(NS(=O)(=O)c2ccccc2)n1 | -7% | 5 | 0% | 2.3%
O=C(Nc1ccccn1)c1ccc(S(=O)(=O)N2CCCC2)cc1 | -6% | / | / | -0.8%
O=C(COc1ccc(Br)cc1Cl)NC(=S)Nc1ccccn1 | 1% | / | -39% | 7.4%
CCC1CCCCN1S(=O)(=O)c1ccc(NC(=O)c2nc(S(C)(=O)=O)ncc2Cl)cc1 (stereo not given) | 1% | / | ? | -2.6%
CCOC(=O)c1cccc(NC(=O)CSc2nnc(C)n2Cc2ccccc2)c1 | -7% | -3 | -5% | -0.8%
Cn1c(=O)n(C)c2cc(S(=O)(=O)N3CCCCC3)ccc21 | 5% | / | -2% | 1.0%
Cc1ccc(-c2nc3c(c(=O)[nH]c(=O)n3CC(C)C)n2CC(C)C)cc1[N+](=O)[O-] | 12% | -10 | -13% | -1.8%
COc1ccc(-c2csc(/C(C#N)=C\c3ccc(OC)c([N+](=O)[O-])c3)n2)cc1 | ? | -11 | -2% | ?
COc1ccc(Cc2nc3ccc(C(=O)NC(C)C)cc3o2)cc1 | ? | / | / | 3.8%
Cc1cnc(C(=O)Nc2cc(F)ccc2C)cn1 | -2% | -30 | -25% | ?
CCCCCCOc1ccc(N2C(=O)CC(S/C(N)=N/N=C(\C)c3cccs3)C2=O)cc1 (stereo not given) | 1% | -2 | 0% | 5.8%
CC(C)(C)NC(=O)NC(=O)COC(=O)CNS(=O)(=O)/C=C/c1ccccc1 | -10% | 12 | 1% | -0.6%
Cc1cccc(-c2nnc(SCC(=O)C(C)(C)C)n2C)c1 | -2% | 2 | -48% | -3.8%
CC1(C)C2CC=C(/C=N/NC(=O)C(N)=O)C1C2 (stereo not given) | -1% | 4 | 5% | -0.8%
CN(c1ccc(OCC(=O)N2CCN(c3ccc(F)cc3)CC2)cc1)S(=O)(=O)c1cccs1 | -14% | 0 | 28% | 0.0%
FC(F)(F)c1cccc(-c2nc(COc3ccc(Cl)cc3Cl)no2)c1 | 0% | -14 | -5% | -2.7%
Cc1ccc(Nc2nc3nonc3[nH]c2=O)cc1C | -9% | -7 | -5% | -0.3%
Nc1cc(N)nc(SCc2cccc(F)c2)n1 | 10% | / | -50% | -0.1%
Cc1cc(NC(=O)COC(=O)c2ccc(C)c(C)c2)no1 | -5% | / | / | -0.1%
CCOc1ccc(-c2nnn(CC(=O)c3cc(OC)ccc3OC)n2)cc1 | -12% | -15 | -9% | 4.1%
CCc1nc(C)c(C#N)c2cc(OC)c(OC)cc12 | -6% | -8 | -11% | 2.2%
O=C(CNc1n[nH]c(=O)[nH]c1=O)N/N=C/c1ccccc1 | -9% | 1 | -10% | 0.7%

3 compounds from above, showing only Rango release inh, miR-21 FLuc and GLA inh pH 4.5.
structure	Rango release inh	miR-21 FLuc	GLA inh pH 4.5
CCC1CCCCN1S(=O)(=O)c1ccc(NC(=O)c2nc(S(C)(=O)=O)ncc2Cl)cc1 (stereo not given)	1%	?	/
Cc1cc(NC(=O)COC(=O)c2ccc(C)c(C)c2)no1	-5%	/	/
O=C(COc1ccc(Br)cc1Cl)NC(=S)Nc1ccccn1	1%	-39%	/

Next records:
SMILES | Rango release inh | GLA inh pH 4.5 | miR-21 FLuc | Rango complex inh
CCOc1ccc(NS(=O)(=O)c2cc3c(cc2C)N(C)CCO3)cc1 | 2% | / | 9% | -3.8%
COc1cc(C(=O)NCc2nnc(SCC(=O)c3ccccc3)o2)cc(OC)c1OC | 4% | / | 0% | 0.0%
Cc1ccc(C(=O)Nc2ccncc2)c(Cl)c1 | -7% | / | -1% | 1.1%
[O-]/[N+](=C\c1ccco1)c1ccc(Cl)cc1 | -4% | / | -41% | -0.7%
Cc1ccc(S(=O)(=O)N2CCOCC2)cc1C(=O)OCC(=O)N1CCCCC1 | 10% | / | / | -0.9%
O=C(c1ccoc1)N1CCC2(CC1)Oc1ccc(F)cc1C(=O)C21CC(c2cccnc2)=NO1 (stereo not given) | 13% | -4 | 6% | -6.4%
CC1=C(C(=O)OC2CCC(C)CC2)C(c2ccc(O)c([N+](=O)[O-])c2)NC(=O)N1 (stereo not given) | 0% | / | -17% | 0.1%
O=c1cc(CO)oc2ccccc12 | -2% | / | / | -3.1%
COc1cc(-c2cc3nc(C)c(C)c(=O)n3[nH]2)cc(OC)c1OC | -4% | 8 | 5% | -3.5%
